Source: PubChem BioAssay (several laboratories)
Sa RN4220 lethal: S. aureus RN4220 growth inhibition. inhibition, % (no concentration beside the values). 330,000 tested, 0.33% active. OD600, 16 h;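 active = z-score of -3 or lower and OD600 up to 0.18 on both plates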;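 also: plate controls were untreated cells for no effect and reference antibiotic for full effect; stock transfer was 100 nL into about 80 µL; one replicate is shown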
Sa ugtP lethal: kills S. aureus RN4220 lacking UgtP; S. aureus RN4220 ugtP deletion, OD600 growth, 16 h; some inactives read as strong as hits; growth inhibition, % (test concentration not listed); 330,000 tested, 0.54% active; AID 1259309;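 active = z-score under -3 and OD600 up to 0.15 on both plates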;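 also: plate controls were untreated wells for no effect and antibiotic for full effect; wells of about 80 µL received 100 nL stock; the first replicate is given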
PrP UTR inh: suppresses PrP 5' UTR mRNA reporter expression | cell-based PrP 5' UTR mRNA reporter, plate reader | inhibition, % (concentration not given with the values) | 340,000 tested, 0.35% active;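 active = every replicate at 50% or more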;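 also: 0 = median of the neutral control wells; tested in H4 reporter cells; numbers are from one replicate; inactives centre near -14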
Autofluor counter: counter-screen for toxin protease inhibitors: compound fluorescence; compound autofluorescence counterscreen, microsphere flow cytometry; hits give high values; AID 624483; fluorescence intensity (test concentration not listed); 360,000 tested, 3.1% active;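 active = at least 3 SD above the mean of all compounds, about 16000 in these data; inconclusive = too few beads counted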;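 also: 100 nL of 1 mM stock went into each well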
Mtb hypoxia inh: reduces hypoxia-regulated biosensor signal in M. tuberculosis; M. tuberculosis hypoxia-regulated fluorescent reporter, fluorescence; fluorescence inhibition, % (no concentration beside the values); 300,000 tested, 0.1% active;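 active = 35 to 45% if threefold the growth effect, above 45% if 1.5-fold the growth effect; inactive = the rest, general growth blockers included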;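 also: wells of about 50 µL received 100 nL stock; 0% = vehicle wells and 100% = reference inhibitor wells; whole bacteria with a GFP reporter of the hypoxia response; strong numbers were not always called active; many hits fall short of the cut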
BJeLR viability: kills HRASV12-expressing BJeLR cells; BJeLR (HRASV12) viability, CellTiter-Glo ATP luminescence, 48 h; reference of the scale not given here; inhibition, % (concentration not given with the values); 300,000 tested, 0.17% active;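 active = replicate mean above 50%; inconclusive = above 50% but judged a plate artefact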;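 also: 50 nL library stock added to about 25 µL; numbers are from one replicate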
Mtb hypoxia inh growth: further read-out of Mtb hypoxia inh, marked with its call; growth inhibition, %; measured here: M. tuberculosis growth (absorbance);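 0% = vehicle and 100% = reference antibiotic; read after six days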
Active calls of the source: *; ? = inconclusive; . = not tested or not shown. The order is random; overall some 3.9% were active at least once.

SMILES	Sa RN4220 lethal	Sa ugtP lethal	PrP UTR inh	Autofluor counter	Mtb hypoxia inh	Mtb hypoxia inh growth	BJeLR viability
O=C(C1CCN(S(=O)(=O)c2ccc(Br)s2)CC1)N1CCc2ccccc21	-1.3	8	-1	4348	.	.	-4
CC1=C[C@H]2OC(=O)[C@@H](C)[C@H]2C[C@@H]2[C@H]1C[C@@H](O)[C@@]2(C)O	.	.	-21	3466	.	.	-4
O=C(CC12CC3CC(CC(C3)C1)C2)NC(Cc1ccccc1)C(=O)O (centres undefined)	11	5	-2	3448	3	6	2
CN(C(=O)CC1C(=O)NCCN1CC1CCCCC1)C1CCOCC1 (centres undefined)	4.1	2	-8	3473	13	2	2
Cc1ccc(-c2noc(CCCOc3ccc(Cl)cc3Cl)n2)cc1	-0.4	54	-12	?	-2	1	-11
CCCCCCn1c(N2CCC(C)CC2)nc2c1c(=O)[nH]c(=O)n2C	4.0	-15	1	2897	10	10	-2
CCOc1ccc(CNc2ccc3c(c2)ncn3C(C)(C)C)cc1	5.0	15	-33	3950	15	13	-1
O=C(c1ccc(Cl)cc1)N(c1ccccn1)C1CCCCC1	0.6	-1	-66	4473	-2	-1	2
COc1ccc(N2C(=O)CC(Sc3nc4ccccc4s3)C2=O)cc1OC (centres undefined)	5.4	7	-24	2039	1	7	4
COC(=O)C1=C(C)NC2=C(C(=O)CC(C)(C)C2)C1c1ccccn1 (centres undefined)	4.3	9	-16	11446	5	-5	-5
CCCOc1ccc(N2C(=O)CC(N(CCCO)C(=O)CC)C2=O)cc1 (centres undefined)	-1.0	0	-24	3883	0	12	-2
CCc1ccc(NC(=O)C2CCN(S(=O)(=O)c3ccc4c(c3)N(C(C)=O)CCO4)CC2)cc1	1.6	4	-18	5523	6	4	5
CN(C)S(=O)(=O)N(CC(=O)Nc1ccc(F)c(F)c1)c1ccccc1	1.5	-8	-6	19146*	7	8	21
Cc1ccc(CNC(=O)c2ccc(OCC3CCCO3)cc2)cc1 (centres undefined)	3.3	1	-27	2467	18	0	-4
COC(=O)C1CCN(C(=O)c2ccc3nccnc3c2)CC1	1.2	9	-6	5916	7	14	-4
Cc1ccc(S(=O)(=O)N2CCN(c3ccnc4cc(Cl)ccc34)CC2)cc1C	3.2	-5	-16	4292	1	11	-5
C#CCOCCOCCOCCNc1nc(N2CCOCC2)nc(N2CCN(C(=O)CCCCCCCCCCNC(=O)C(CO)n3cc(CCCCCN)nn3)CC2)n1 (centres undefined)	6.2	6	.	.	1	14	.
COc1cc(/C=C2/SC(=S)N(Cc3ccccc3)C2=O)ccc1OS(C)(=O)=O	-3.5	1	-8	3147	4	-8	3
Cc1ccc(OC(=S)Nc2ccccc2)c(C)c1	4.1	6	-21	.	11	9	-7
CC(=O)OCc1nc2ccccc2s1	-4.4	-8	4	10816	2	-6	-10
CC(NC(=O)COC(=O)c1ccco1)c1ccccc1 (centres undefined)	6.1	13	-6	3186	1	3	4
CN(C(=O)CSc1nnnn1-c1ccccc1)C1CCS(=O)(=O)C1 (centres undefined)	5.3	8	1	4038	1	5	4
Cc1cccc(C(=O)Nc2cccc(OC(=O)c3cccc(C)c3)c2)c1	-16	4	-28	2954	11	3	-3
C=CCn1c(COc2ccc(Cl)cc2)nnc1SCC(=O)N/N=C/c1ccccc1	.	.	-13	3497	.	.	-3
O=C(c1ccccc1)c1cccn1CC(=O)N1CCCCCC1	1.1	-4	-6	.	9	10	2
CC(C)C(=O)Nc1ccccc1C(=O)N/N=C/c1ccc([N+](=O)[O-])cc1	.	.	-26	3446	.	.	3
COc1ccc(/C(O)=C2/C(=O)C(=O)N(CCN3CCNCC3)C2c2cccc([N+](=O)[O-])c2)cc1 (centres undefined)	1.2	10	-14	3147	7	-34	-10
COc1ccc(N2CCN(CC(=O)Nc3ccc(C)c(C)c3)CC2)cc1	-1.4	-2	-7	3196	0	4	-9
CC1(C)CC(=O)C2=C(C1)Oc1ncn(CCO)c(=N)c1C2c1ccccc1 (centres undefined)	.	.	-7	3269	.	.	-4
COc1ccc(CN(C(=O)CSc2nnc(-c3ccccc3F)o2)c2ccc(F)cc2)cc1	0.3	-7	-9	10457	2	6	-1
Cc1ccc(-c2nnc(CCC(=O)NCC3C4CC5CC(C4)CC3C5)o2)s1 (centres undefined)	3.1	5	-68	4464	5	3	3
Cc1csc(SCC(=O)NC(=O)NC2CCCC2)n1	1.8	3	-33	4301	14	6	12
CC1=C(C(=O)NCCc2ccc(C)cc2)C2(CCC(C)CC2)OC1=O (centres undefined)	6.7	6	-9	6338	2	-5	-1
COCCCNC(=O)CCN1C(=O)COc2ccccc21	6.1	5	-19	9644	1	1	2
Cc1cc(C[n+]2cc(Br)ccc2N)c2ncccc2c1	2.5	7	-2	4524	7	7	-3
N=c1sccn1CC(=O)NC(=O)NC1CCCC1	.	.	-24	2008	.	.	18

Sorted by molar mass (largest number first): 6 of the compounds above
SMILES	Sa RN4220 lethal	Sa ugtP lethal	PrP UTR inh	Autofluor counter	Mtb hypoxia inh	Mtb hypoxia inh growth	BJeLR viability
COc1ccc(/C(O)=C2/C(=O)C(=O)N(CCN3CCNCC3)C2c2cccc([N+](=O)[O-])c2)cc1 (centres undefined)	1.2	10	-14	3147	7	-34	-10
CC1(C)CC(=O)C2=C(C1)Oc1ncn(CCO)c(=N)c1C2c1ccccc1 (centres undefined)	.	.	-7	3269	.	.	-4
CC(C)C(=O)Nc1ccccc1C(=O)N/N=C/c1ccc([N+](=O)[O-])cc1	.	.	-26	3446	.	.	3
COc1ccc(N2CCN(CC(=O)Nc3ccc(C)c(C)c3)CC2)cc1	-1.4	-2	-7	3196	0	4	-9
Cc1cc(C[n+]2cc(Br)ccc2N)c2ncccc2c1	2.5	7	-2	4524	7	7	-3
COCCCNC(=O)CCN1C(=O)COc2ccccc21	6.1	5	-19	9644	1	1	2

Following part:
SMILES	Sa RN4220 lethal	Sa ugtP lethal	PrP UTR inh	Autofluor counter	Mtb hypoxia inh	Mtb hypoxia inh growth	BJeLR viability
O=C(NN=Cc1cn(-c2ccccc2)nc1-c1cccnc1)c1cccnc1	-0.4	0	.	.	4	7	.
CCOCCCNC(=O)c1c[nH]c2ccc(OCC)cc2c1=O	-0.4	-10	1	4875	-3	10	4
CCSc1nc(N)c2c(C)c(C)sc2n1	11	1	-21	4447	.	.	3
CCc1nc2ccccc2c(=O)n1/N=C/c1ccc(OC)cc1	.	.	-12	4484	.	.	9
CNc1nc(NN=Cc2cc([N+](=O)[O-])ccc2F)nc(Nc2ccccc2)n1	17	-13	.	.	5	14	.
O=P(Nc1ccccc1)(Nc1ccccc1)Oc1cccc(Cl)c1	8.1	-19	11	17171*	-1	7	8
O=C(O)CC(NC(=O)C12CC3CC(CC(C3)C1)C2)c1ccc(F)cc1 (centres undefined)	-0.9	-1	0	3596	-6	-2	6
Cc1cc(O)c(-c2cc(C(=O)Nc3cccnc3)[nH]n2)cc1C	-0.8	11	-170	3603	11	4	2
CCOc1cc2c(cc1OCC)C(c1ccccc1)N(c1ccccc1)C(=O)C2 (centres undefined)	4.8	-2	-20	2520	10	5	-7
CC(=O)c1ccc(NC(=O)c2ccc3nc(C)sc3c2)cc1	2.6	5	-35	3558	-1	1	-3
O=C(NN=Cc1ccccn1)c1cc(-c2ccc(Cl)s2)[nH]n1	-1.9	-2	.	.	2	-2	.
O=C(CCN1C(=O)/C(=C/c2ccccc2Cl)SC1=S)NC1CCS(=O)(=O)C1 (centres undefined)	.	.	-11	5567	.	.	9
Cc1nnc(C)n1/N=C/c1ccc(O)cc1	.	.	-83	2843	.	.	12
O=C(CSCc1ccc(Cl)cc1)Nc1ccccc1C(=O)N1CCOCC1	-12	-1	-28	3346	3	1	-6
C=CCN1C(=O)c2ccc(C(=O)N3CCN(c4ccccc4OC)CC3)cc2C1=O	-0.6	10	-11	?	2	8	-3
CC(=O)NCC(=O)NC(C(=O)Nc1ccc2c(c1)OCCO2)c1ccc(C)cc1 (centres undefined)	-2.6	-1	-11	3889	.	.	1
CCN1C[C@@H]2[C@@H]3C(=O)N(Cc4ccccc4)C(=O)[C@@H]3[C@](Cc3ccccc3)(C(=O)OC)N2C1=NCc1ccccc1	1.6	4	-3	2979	0	5	.
COc1ccc(-n2c(CCc3ccccc3)nnc2SCC(=O)c2ccccc2)cc1	7.0	-28	11	2037	-13	-10	10
COc1ccc(-c2nc3c(n2O)CCC/C3=N\O)cc1	.	.	-66	21176*	.	.	2
O=C(COc1c(Cl)cccc1Cl)Nc1ccccc1N1CCCC1	2.7	6	-12	5565	-2	-3	-7
CC(OC(=O)CCc1ccccc1)C(=O)Nc1ccc(Cl)cn1 (centres undefined)	1.9	6	-8	.	-1	-3	-7
O=C1[C@@H]2Cc3c([nH]c4ccccc34)C(c3cccc(Br)c3)N2C(=O)CN1C1CCN(Cc2ccccc2)CC1 (some centres undefined)	10	-13	.	4262	10	9	7
O=C1NC(c2cccnc2)C(C(=O)c2cccs2)C(O)(C(F)(F)F)N1 (centres undefined)	6.5	9	-17	2557	2	5	-5
OC(CNCc1ccco1)Cn1c2ccccc2c2ccccc21 (centres undefined)	-2.2	-12	-19	9330	9	5	4
COc1ccc(OC)c(S(=O)(=O)NC(C)c2cnn(-c3ccccn3)c2C)c1 (centres undefined)	2.5	9	-6	5985	4	1	-8
CCC(C)NC(=O)CSc1nc2cc(S(=O)(=O)N3CCOCC3)ccc2n1CC (centres undefined)	6.4	-1	-8	6173	10	1	-5
O=[N+]([O-])c1cc(S(=O)(=O)NCCN2CCOCC2)ccc1Cl	-0.3	9	-8	5125	8	2	8
Cc1ccc(-n2c(SCC(=O)NN=Cc3c(C)nn(-c4ccccc4)c3C)nc3ccccc3c2=O)cc1	0.7	2	.	.	1	-5	.
Cc1cccc(C)c1NC(=O)c1cccc2c1C(=O)N(C1CCCCC1)C2	-5.3	-21	-14	5259	2	-12	5
Cc1nnc(SCC(=O)c2c(N)n(C)c(=O)n(C)c2=O)n1Cc1ccccc1	2.6	-7	-29	12783	-7	-5	-12
CC1(C)C(C=C(Cl)Cl)C1C(=O)NN=Cc1ccccc1F (centres undefined)	1.5	-15	.	.	4	13	.
Cc1nn(C(C)C(=O)NCCCN2CCCCC2C)c(=O)c2c1sc1ccccc12 (centres undefined)	6.6	1	-21	7357	-3	2	-2
CO/N=C/c1ccc(Oc2ccc(C)cc2)c([N+](=O)[O-])c1	.	.	-33	4134	.	.	-5
Cc1ccc2[nH]c(=O)c(CNC(C)C)cc2c1	-11	4	-3	2436	.	.	6
Cc1nc(C)n(CC(C)C(=O)N2CCN(S(=O)(=O)c3ccc(Cl)cc3)CC2)n1 (centres undefined)	1.0	-1	-6	4364	-7	-8	-3
CC(C)(C)NC(=S)NCc1cccnc1	0.4	2	-1	23776*	3	7	5
Cc1cccc2cc(C#N)c(SCc3nnc(-c4ccccc4[N+](=O)[O-])o3)nc12	1.2	9	-21	1917	-1	3	-5
COCCn1c(-c2ccc(Br)cc2)nc2oc3cc(OC)ccc3c(=O)c2c1=O	7.4	-16	.	5199	8	0	1
Cn1cc(S(=O)(=O)NC2CCCC2)c(=O)n(C)c1=O	2.6	2	-30	6178	8	15	-6
Cc1cc(OC(C)C(=O)NCc2cccnc2)c2c(C)c(Cc3ccccc3)c(=O)oc2c1 (centres undefined)	6.2	5	-8	5243	-10	-4	2
CCOC(=O)c1c(N)c(C#N)cn1-c1ccccc1	2.9	6	1	8455	7	5	-15
Cc1ccc2ccc(S(=O)(=O)NCc3ccccn3)cc2c1	7.3	6	-11	3248	4	1	-3
Cc1nc2ccccc2c2oc(C(=O)NCCN3CCCCC3C)cc12 (centres undefined)	-10	-4	-1	13061	2	7	-4
Cc1nc2ncnn2c(Nc2ccc3c(c2)OCO3)c1Cc1ccccc1	6.9	-8	-21	10012	3	5	-11
COC(=O)c1cccc(Nc2ncnc3ccc(C)cc23)c1	7.9	-13	-18	6105	9	7	-3
CCSc1nnc(NC(=O)CSc2nnc(CNC(=O)c3ccc(OC)c(OC)c3)o2)s1	3.0	9	-28	1878	8	9	-21
